A1 inh: inhibitors of the anti-apoptotic protein A1, read as caspase activation; MEF A1-2A-BIM cells, Caspase-Glo 3/7 luminescence, 3 h; percent of clofoctol response, vehicle zero; caspase activation, % (concentration not given with the values); hit rate 0.066% among 330,000;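 active = over half of replicate activation scores above 10%, or exactly half above 10 with the replicate mean above 10; inconclusive = replicate mean below 10 yet half the replicates above 10; inactive = over half of replicates below 10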;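 note: wells of about 30 µL received 50 nL stock; many hits fall short of the cut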
rRNA inh HTS: inhibits bacterial ribosomal RNA function over humanized ribosomes | E. coli WT GFP vs humanized-ribosome RFP mutants, fluorescence, 24 h; hits give low values; DMSO median 0, no signal -100 | GFP signal change (wild-type ribosome), % (no concentration beside the values) | hit rate 1.6% among 350,000;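 active = significant combined selectivity score with lowered wild-type GFP, culture density cut under 30%, mutant RFP and density less affected; inactive = any of these conditions unmet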; note: one replicate is shown; some compounds called inactive have numbers as strong as hits
T cruzi inh: T. cruzi replication inhibition; hit rate 1.4% among 300,000; inhibition, % (no concentration beside the values); T. cruzi beta-gal in NIH3T3, luminescence, 90 h; AID 1885;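 active = mean inhibition across valid replicates above about 55%, limit read from the data; inconclusive = mean below that limit but half or more replicates reach it; inactive = mean below it, under half of replicates reach it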;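 note: signal also drops with host cell toxicity which is not excluded here; 0% = plate median of DMSO wells and 100% = zero luminescence signal; higher percent means less beta-gal luminescence so fewer parasites; stock transfer was 50 nL into about 50 µL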
Beta apoptosis: beta cell apoptosis inhibition; INS-1E cytokine-induced death, ATP luminescence, 48 h; percent of positive-control rescue, neutral wells zero; protection from apoptosis, % (no concentration beside the values); hit rate 0.8% among 300,000;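 active = all replicates at 75% or more, or half of them and the mean; inconclusive = half reach 75% but not the mean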;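 note: 0% = cytokine-treated negative control wells and 100% = positive control rescue; higher means more ATP so stronger rescue from cytokine killing; wells of about 40 µL received 100 nL stock; the first replicate is given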
Vif TR-FRET: inhibitors of Vif binding to APOBEC3G peptide, primary screen, biochemical, TR-FRET, GST-Vif 1-94, biotin-A3G peptide, dose response retest (AID 1117319); hit rate 0.57% among 260,000; TR-FRET GST-Vif / biotin-A3G peptide binding; higher % means a stronger effect; test concentration not given here; strong numbers were not always called active; one-dose inhibition, %; IC50 in µM for titrated hits;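 active = above the screen mean plus three standard deviations and confirmed in dose response; inconclusive = results disagree or hit not tested in dose response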;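 note: Vif residues 1-94 fused to GST binding biotinylated APOBEC3G peptide 110-148; 0% = full assay without inhibitor and 100% = GST in place of GST-Vif; retest series ran down from 100 µM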
AF4-AF9 inh: inhibitors of human MLL-AF4/AF9 interaction; P42568; inhibition, % at 10 µM; hit rate 0.47% among 350,000; AID 651704; AlphaScreen, biotin-AF4 peptide binding to FLAG-AF9;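 active = every replicate reaching a set inhibition limit, whatever the replicate mean, cut at about 25% in these data; inconclusive = mean inhibition reaches that limit but some replicates miss it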;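 note: 0% = plate neutral control median and 100% = total signal loss; the record names both 10 and 1 µM as test concentration; the first replicate is given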
Target sequence (P42568 whole entry, looked up): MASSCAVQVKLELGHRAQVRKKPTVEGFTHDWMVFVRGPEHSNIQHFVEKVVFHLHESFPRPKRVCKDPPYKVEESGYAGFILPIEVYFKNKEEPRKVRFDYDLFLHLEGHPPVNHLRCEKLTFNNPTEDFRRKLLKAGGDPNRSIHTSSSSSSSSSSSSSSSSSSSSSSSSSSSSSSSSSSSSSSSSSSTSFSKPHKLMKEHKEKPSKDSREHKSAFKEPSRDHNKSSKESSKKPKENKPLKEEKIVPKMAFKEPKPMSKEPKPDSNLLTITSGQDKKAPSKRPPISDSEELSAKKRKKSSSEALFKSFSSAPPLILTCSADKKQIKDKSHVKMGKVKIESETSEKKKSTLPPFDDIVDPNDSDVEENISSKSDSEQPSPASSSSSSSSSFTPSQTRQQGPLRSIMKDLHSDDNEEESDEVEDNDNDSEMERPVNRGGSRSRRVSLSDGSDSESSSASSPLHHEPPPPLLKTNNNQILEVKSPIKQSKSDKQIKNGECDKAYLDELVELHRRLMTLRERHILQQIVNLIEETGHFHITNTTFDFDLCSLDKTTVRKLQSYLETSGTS
RanGTP-Impb inh: inhibitors of RanGTP-importin-beta interaction, primary screen, biochemical, FRET, CFP-Ran, YFP-importin-beta, homogeneous | cell-free CFP-Ran/YFP-importin-beta FRET ratio | inhibition, % (concentration not given with the values) | hit rate 1.1% among 300,000;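 active = most replicates above 15%; inconclusive = exactly half above 15%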;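 note: 0% = DMSO wells and 100% = Ran loaded with GDP instead of GTP; wells of about 40 µL received 100 nL stock; the first replicate is given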
Calb FLC: C. albicans growth modulation with fluconazole. C. albicans CaCi-2 (fluconazole-resistant clinical isolate) + fluconazole, Alamar Blue growth, 48 h. hit rate 0.57% among 300,000. growth inhibition, % (no concentration beside the values). AID 1979;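 active = most replicates above 75%; inconclusive = exactly half above 75%; inactive = most below 75%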;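 note: all wells also contain fluconazole at 8 µg/ml as a sub-toxic cotreatment; 0% = median of DMSO wells and 100% = median of geldanamycin control wells; wells of about 8 µL received 7.5 nL stock; the first replicate is given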
rRNA inh HTS OD600: further read-out of rRNA inh HTS, marked with its call; OD600 change, %; measured here: OD600 growth;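 optical density of the mix in the first replicate; 0 = DMSO median and -100 = no signal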
rRNA inh HTS RFP: second read-out of rRNA inh HTS, no call of its own (marks repeat the call); RFP signal change, %; measured here: RFP humanized mutant strains;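 first replicate; 0 = DMSO median and -100 = no signal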
An asterisk follows results filed as active; ? = inconclusive; / = no result given; & = joins results of further samples. A portion of the library; rates above refer to the full screens.

SMILES	A1 inh	rRNA inh HTS	rRNA inh HTS OD600	rRNA inh HTS RFP	T cruzi inh	Beta apoptosis	Vif TR-FRET	AF4-AF9 inh	RanGTP-Impb inh	Calb FLC
CCC(C)n1c(SCC(=O)Nc2cc(C(C)(C)C)nn2-c2ccccc2)nc2ccccc2c1=O (stereo not given)	0.7	10	12	4.0	27	38	9%	0.7	1.1	14
O=[N+]([O-])c1ccc(N/N=C/c2cccc(O)c2)cc1	-1.4	-53	-73	-12	-11	2	/	-0.8	3.5	-33
Cn1c(=O)c2c(ncn2CC(=O)OCC(=O)Nc2ccc(F)cc2Cl)n(C)c1=O	0.7	22	17	5.1	/	-2	-11%	0.6	/	/
CC1CCN(S(=O)(=O)c2ccc(C(=O)NNC(=O)C3CC3)cc2)CC1	0.1	17	0	-0.6	-1	-4	/	-0.4	0.9	-11
COc1ccccc1NC=C1C(=O)OC2(CCCCC2)OC1=O	0.5	/	/	/	-9	1	21%	/	-3.1	-1
COc1ccc(CC(=O)N/N=C(\C)c2cccs2)cc1OC	-0.6	-10	-6	-0.5	/	2	/	-1.9	/	-6
CC(C)CCCC(C)NS(=O)(=O)Cc1ccccc1 (stereo not given)	0.6	/	/	/	2	1	1%	/	-3.8	-9
Cc1nn(Cc2c(F)c(F)c(F)c(F)c2F)c(C)c1NC(=O)c1c([N+](=O)[O-])c(C)nn1C	1.3	/	/	/	-6	-3	1%	/	2.0	23
CCOc1ccc(CCNC(=O)COC(=O)CSc2ccccc2C)cc1OCC	0.4	0	-1	3.2	6	-3	/	-2.5	5.1	-5
O=C(NCCc1ccccc1)C1CCN(S(=O)(=O)N2CCCCC2)CC1	0.1	2	14	-3.2	-19	-4	-8%	-1.7	1.0	6
[O-][n+]1c2ccc3nonc3c2nn1-c1ccccc1Cl	-0.7	7	11	0.0	-14	-4	0%	-24	-0.7	-10
COc1ccc(CCNC(=O)CSc2nnc(CNC(=O)c3c(F)cccc3Cl)o2)cc1OC	0.0	3	9	-1.8	47	-7	/	1.2	4.7	-1
COc1cc(-c2cc(C(=O)Nc3c(Cl)cc(Cl)cc3Cl)c3ccccc3n2)cc(OC)c1OC	0.5	/	/	/	-5	16	-24%	-0.9	?	1
CC(C)=CCCC(C)CN(C)CCc1ccccn1 (stereo not given)	0.9	/	/	/	63*	-2	5%	/	-4.8	9
CN(C(=O)COC(=O)Cn1cnc2c1c(=O)n(C)c(=O)n2C)C1(C#N)CCCCC1	-0.5	1	7	0.6	/	0	8%	-3.0	/	/
COCCCNC(=O)C(Cc1ccccc1)NS(=O)(=O)c1ccc2c(c1)c(=O)n(C)c(=O)n2C (stereo not given)	-0.3	/	/	/	-4	2	3%&4%	/	?	8
O=C(Cn1cnc2ccccc21)Nc1cccc([N+](=O)[O-])c1	-0.1	-20	-12	-1.1	-9	-4	?	1.3	2.9	38
COc1cc2cc(-c3ccc(O)cc3O)nc(C)c2cc1OC	0.4	-21	-55	2.0	14	7	-4%	-6.3	0.8	-1
COc1ccc(C(=O)N/N=C/c2ccc(OC)c(CN3CCCc4ccccc43)c2)cc1	-1.1	/	/	/	32	14	10%	/	3.7	-24
Cc1cc(C)c2c(n1)SCC(=O)N2CC(=O)Nc1ccc(C)c(C)c1	/	-4	-12	3.9	2	/	-4%	-3.7	?	-6
CC(=O)c1c(C)[nH]c(C(=O)COC(=O)COc2ccccc2)c1C	1.2	4	9	2.2	/	-2	/	-3.7	/	/
O=C(Nc1cccnc1Cl)c1noc2c1CCc1ccccc1-2	-5.0	9	-8	-2.3	12	-1	32%	/	0.3	-5
Cc1ccc(S(=O)(=O)N(C)C)cc1NC(=O)C(C)OC(=O)c1ccc2c(c1)OCCO2 (stereo not given)	-0.6	-3	1	1.5	-12	-5	/	5.8	3.5	3
CCOc1ccc(C(C)=O)cc1COC(=O)C1=COCCO1	0.3	/	/	/	-3	0	7%	/	1.2	22
CCOc1ccccc1-c1cc(C(=O)N/N=C/c2cccnc2)c2ccccc2n1	0.5	/	/	/	-16	/	/	9.5	-3.4	-2
O=C(N/N=C/C=C\c1ccc([N+](=O)[O-])cc1)c1cccnc1	0.8	17	6	1.5	-5	-1	-8%	/	2.8	1
Cc1ccc(-n2nnnc2-c2ccco2)cc1	-0.3	/	/	/	-13	3	-1%	/	-0.1	/
CCCCn1c(O)c(/C=C2\C=Nc3ccccc32)c(=O)[nH]c1=O	-0.1	5	-1	24	-12	-10	-1%	-8.2	-3.7	-5
COCCNC(=O)C(=O)N/N=C/c1ccccc1C(F)(F)F	0.6	/	/	/	-6	-2	-1%	/	6.2	0
O=C(Nc1ccccc1O)c1cc(S(=O)(=O)N2CCOCC2)c(Cl)cc1Cl	-0.1	-4	-11	1.9	/	-7	6%	/	1.8	53
CCOC(=O)c1ccc(NC(=O)CSc2nnc(-c3cccs3)n2C)cc1	0.1	/	/	/	3	-18	-17%	/	?	-1
NC1=NC[C@H](Cc2ccc(O)cc2)N1CCc1cc(C(F)(F)F)cc(C(F)(F)F)c1	2.1	/	/	/	7	8	-3%	3.3	4.0	-24
Cc1ccc2nc(-c3cccc(N)c3)oc2c1	-8.4	-3	0	-1.0	-9	/	-2%	-4.5	1.1	-19
O=C(Cc1cn2ccsc2n1)NCCc1ccc(F)cc1	0.0	/	/	/	4	0	16%	/	3.9	-3
CCOCCCN1CN(Cc2ccccc2)CNC1=S	1.2	/	/	/	-12	-6	0%	/	-0.3	24
O=[N+]([O-])c1ccc2[nH]c(O)c(N=NC(=S)Nc3cccnc3)c2c1	0.7	3	5	1.4	2	13	12%	-2.9	2.9	4
CCc1ccc(OCC(=O)NCCN(C)C)c(Br)c1	1.1	/	/	/	35	5	?	/	?	6
CCCCCCc1cc2cc(S(=O)(=O)c3ccc(C)cc3)c(=O)oc2cc1O	0.1	-8	15	1.5	-16	0	-6%	8.2	163*	4
CCOc1ccc(/C=N/NC(=O)Cc2cccs2)cc1	-0.3	12	1	-1.3	-1	-4	-2%	-0.5	-0.3	4
CCC(Sc1nc2ncccc2[nH]1)C(=O)NC1CCC(C)CC1 (stereo not given)	0.4	-1	-18	-6.0	-9	-12	/	-1.3	0.7	-1
Cc1ccccc1OCC(=O)O/N=C(\N)c1ccncc1	-0.8	-3	-10	3.9	-2	-3	1%	-33	2.8	0
CC(=O)c1ccc(OCCCC(=O)OCC(=O)Nc2c(C)nn(-c3ccccc3)c2C)cc1	0.4	/	/	/	/	-7	-6%	-0.3	/	/
COc1ccc(C(=O)c2c3ccccc3[n+]([O-])n2CCCN)cc1	-0.4	-5&9	0&1	-0.7&-6.6	4	-6	-3%	0.1&6.3	4.3	-13
CC(C)=NNC(=O)C1=NNC(=O)C1	0.7	13	4	0.8	1	-1	-5%	-1.9	2.4	-2
CC1Sc2ccc(S(=O)(=O)CCC(=O)N(C)Cc3ccccc3)cc2NC1=O (stereo not given)	0.2	-8	-4	1.5	13	-5	1%	0.5	1.1	0
COc1ccc(NC(=O)NCCC2=CCCCC2)cc1	-3.9	5	5	-0.7	-11	-1	/	-4.9	27	?
CCOC(=O)Nc1ccc2c(COC(=O)C(NS(=O)(=O)c3ccc(Cl)cc3)C(C)O)cc(=O)oc2c1 (stereo not given)	-1.8	-24	-43	-5.5	/	0	-19%	0.7	/	/
O=C(Nc1ccc2nc3n(c(=O)c2c1)CCCCC3)c1ccccn1	-3.2	-4	-26	-1.4	0	3	-4%	-1.5	-1.7	3
COc1ccc(C(=O)N/C(=C\c2ccc3c(c2)OCO3)C(=O)NCCc2nc3ccccc3[nH]2)cc1	-2.5	/	/	/	-8	0	/	/	3.4	-5
O=[N+]([O-])c1ccc(N2CCN(CCOc3nonc3-c3ccccc3)CC2)c(Cl)c1	0.0	18	16	-0.2	28	119*	5%	-6.4	0.4	-9
Cc1ccc2c(Cl)cc(Cl)c(OCC(=O)OCC(=O)Nc3ccc(C#N)cc3)c2n1	0.4	2	0	-1.0	-17	-3	-6%	9.7	1.9	0
CCCCc1ccc(NC(=O)Nc2cnccn2)cc1	-2.3	-6	-2	-4.2	25	4	-7%	0.9	-0.7	50
O=C(NNC(=O)C12CC3CC(CC(C3)C1)C2)c1ccco1	1.1	9	2	-3.5	3	-8	/	-1.1	0.2	-13
Cc1c(C(=O)N2CCOCC2)[nH]c2c1C(=O)CC(c1ccc(Cl)cc1)C2 (stereo not given)	0.6	/	/	/	6	13	22%	/	0.6	-4
Cn1ncc(N=Cc2c(O)ccc3ccccc23)c1C(=O)N1CCOCC1	0.6	/	/	/	-1	-11	-2%	/	5.6	1
Nc1nonc1-n1nnc(C(=O)N/N=C/c2ccc(OCc3ccccc3)cc2)c1CNc1ccccc1	-2.7	9	5	-0.8	-24	5	/	1.7	2.8	12
Cc1ccc(C(=O)Nc2nc3c(s2)CCCC3)o1	-5.9	/	/	/	12	25	-1%	/	2.0	26
O=C(O)c1cc(-c2cccnc2)nc2ccc(Br)cc12	0.2	8	1	0.4	/	-3	-159%	-0.2	-1.9	-6
Cc1ccc(C)c2[nH]c(=O)c(CN(Cc3nnnn3C3CCCCC3)CC3CCCO3)cc12 (stereo not given)	1.0	-1	4	0.8	26	-3	?	/	-1.7	14
C=CCOc1ccc(CN(C)CC(=O)N(CC(C)C)c2c(N)n(CC(C)C)c(=O)[nH]c2=O)cc1	-0.7	/	/	/	15	-5	3%&-5%	/	12	-6

The results go on:
SMILES	A1 inh	rRNA inh HTS	rRNA inh HTS OD600	rRNA inh HTS RFP	T cruzi inh	Beta apoptosis	Vif TR-FRET	AF4-AF9 inh	RanGTP-Impb inh	Calb FLC
CCC(=N\NC(=O)COc1ccccc1OC)/C(CC)=N/NC(=O)COc1ccccc1OC	-1.7	/	/	/	/	2	?	1.0	/	/
COc1cc(OC)cc(C(=O)NNC(=O)C(=O)Nc2cc(OC)c(Cl)cc2OC)c1	-0.9	-38	-52	-0.7	-14	18	/	-1.0	1.8	1
Cc1nnc(SCC(=O)N(C)CC(=O)Nc2ccccc2Cl)s1	0.2	16	6	1.2	-6	-6	8%	-0.9	-5.9	-1
CC1(C)Cc2nc3scc(NC(=O)c4ccccc4)c3cc2CO1	-0.5	4	0	1.7	0	12	0%	-1.2	-2.4	3
CCc1cc2c(SCC(=O)Nc3ccc(NC(C)=O)cc3)ncnc2s1	0.4	13	13	4.9	/	1	-35%	1.0	/	/
COc1cccc(-c2cc(C(F)(F)F)nc(NCc3ccco3)n2)c1	-0.3	/	/	/	10	0	1%	/	-1.0	0
CC(C)NC(=O)c1nn(C)c2ccccc12	0.2	/	/	/	-20	0	/	/	0.6	-6
COc1ccc(CCNC(=O)C(=O)c2c(C)[nH]c3ccccc23)cc1	1.7	-21	-21	-4.2	7	/	4%	-0.5	7.2	5
CCOC(=O)c1ccc(NC(=O)Cn2nnc(-c3ccccc3C)n2)cc1	1.6	/	/	/	-3	-6	-10%	/	0.6	0
O=S(=O)(CCN1CCN(c2ccccn2)CC1)c1ccc(F)cc1	0.5	9	-3	-1.7	2	14	/	-4.7	-2.2	-8
